# Screening results from PubChem.
# LASV entry inh – Lassa virus entry inhibition | Potency, µM (doses to about 49.2 µM), inactives show at the highest dose activity change, negative = inhibition, usual class: inhibitors | Lassa virus pseudotyped entry inhibition, cell-based qHTS; control for the full effect not named in the record; many of its hits are not listed in these tables | 18,000 compounds, 4.1% hits; active = well fitted inhibition curve with a large enough effect; inconclusive = small, poorly fitted or top-dose-only effect; inactive = no such curve, though single readings can be large or run the other way; tested in HEK293 cells; further: luciferase read-out
# MARV entry inh – Marburg virus entry inhibition. Marburg virus pseudotype entry/binding inhibition, cell-based; control for the full effect not named in the record; many of its hits are not listed in these tables. Potency, µM (doses to about 49.2 µM), inactives show at the top dose activity change, negative = inhibition, most hits filed as inhibitors. 18,000 compounds, 6.5% hits; active means well fitted inhibition curve with a large enough effect; inconclusive means small, poorly fitted or top-dose-only effect; inactive means no such curve, though single readings can be large or run the other way; tested in HEK293 cells; further: luciferase read-out
# The depositor's hits bear a star; ? = inconclusive; · = not tested or not shown; & = joins results of further samples; [ ] = dose if it differs, or a comment. On the % scale 0 is the no-effect control and ±100 the full control effect; potency means the concentration at half of the fitted maximal effect. Rows are unselected. Share with any hit: about 7.3%.
SMILES,LASV entry inh,MARV entry inh
CC[C@@H]1Cn2c(c3nc(-c4cc(Cl)cc(Cl)c4Cl)nc-3n(C)c2=O)N1,5%,6%
CCCCCCCCNCCS(=O)(=O)NCc1ccc(OC)cc1,-17%,12%
C=CCC(O)c1ccccc1 (stereo unspecified),5%,-8%
Cc1cccc(CNC(=O)c2c3n(c(C)cc2=O)-c2ccccc2SC(c2sccc2C)C3)n1 (stereo unspecified),-13%,?
COc1ccc(-c2cc(=O)c3cc(OC)ccc3o2)cc1,38%[activator],20%
Cc1[nH]c2c(F)cccc2c1CC(=O)NCCN1Cc2ccccc2OC(C)C1 (stereo unspecified),-17%,-3%
c1ccc2c(N3CCCCCC3)nc(CN3CCCCC3c3nccs3)nc2c1 (stereo unspecified),-23%,?
C=C(C)[C@]12C[C@@H](C)[C@@]34OC(Cc5ccccc5)(O[C@@H]1[C@@H]3C=C(COC(=O)Cc1cc(OC)c(O)cc1I)C[C@]1(O)C(=O)C(C)=C[C@@H]41)O2,20µM*,14µM*
CO/C1=C\C(C)=C\[C@@H](C)[C@@H](O)[C@@H](C)C/C(C)=C/C=C/[C@H](OC)[C@@H]([C@@H](C)[C@@H](O)[C@H](C)[C@@]2(O)C[C@@H](O)[C@H](C)C(C(C)C)O2)OC1=O (stereo partly specified),?,?
CC(=O)N[C@@H](CC(=O)O)C(=O)N[C@@H](CCC(=O)O)C(=O)O,9%,9%
O=C(NNCS(=O)(=O)O)c1ccncc1,3%,4%
CC(=O)O[C@@H]1CC[C@@]2(C)[C@H](C1)[C@H](OC(C)=O)C[C@@H]1[C@@H]2C[C@H]2[C@@H]3CN4C[C@H](C)CC[C@H]4[C@H](C)[C@H]3CC[C@@]12O,3%,-26%
OC1(c2ccc(Cl)cc2)CCN(Cc2c[nH]c3ccccc23)CC1,?,8.9µM*
COc1ccccc1[C@@H]1C(c2cccc(Cl)c2)=NN(c2ccccc2)[C@H]1C(=O)N1CCOC1=O,-17%,-29%
COc1cccc(C2(CC(=O)N3CCN(c4ccccn4)CC3)CC(=O)N(C3CCCC3)C2=O)c1 (stereo unspecified),-11%,9%
C[C@@H]1CNCCN1S(=O)(=O)c1cccc2cnccc12,5%,-25%
CC(NC(=O)c1cccnc1)c1nnc2n1CCN(Cc1ccc(-c3ccccc3)cc1)CC2 (stereo unspecified),1%,?
CCN(CC)C(=O)c1cccnc1,13%,26%
CN(C)C1C(=O)C(C(N)=O)=C(O)[C@@]2(O)C(=O)C3=C(O)c4c(O)cccc4[C@@](C)(O)C3C[C@@H]12 (stereo partly specified),-10%,-13%
Cc1ccccc1-c1ccc(CN2CCc3nnc(CNC(=O)c4ccccn4)n3CC2)cc1,-15%,5%
CC(=O)OC1(c2ccccc2)CCN(CCc2ccccc2)CC1,-24%[107 µM],?
Cc1ccc(CC(Cc2nc3ccccc3[nH]2)c2nc3ccccc3[nH]2)cc1 (stereo unspecified),-22%,-15%
COc1cc(-c2coc3cc(OCc4ccccc4)c(OC)c(O)c3c2=O)cc(O)c1OC,-9%,6%
OC[C@@H]1O[C@H](OC2[C@@H](O)[C@@H](O)C(O)O[C@@H]2CO)[C@H](O)[C@@H](O)[C@@H]1OC1O[C@H](CO)[C@@H](O)[C@H](O)[C@@H]1O (stereo partly specified),5%,8%
COc1ccc2c(c1)CCc1cnc(-n3ncc(C(=O)NCC(C)(C)CN(C)C)c3C)nc1-2,?,4.5µM*
COc1cc(C(CC2=C(c3ccccc3)Cc3ccccc32)NC(=O)C(F)(F)F)cc(OC)c1OC (stereo unspecified),21%[8.59 µM],8%[8.59 µM]
Fc1ccc(-c2ncn(C3CCNCC3)c2-c2ccnc(Oc3ccc(Oc4ccccc4)cc3)n2)cc1,?,8.9µM*
COc1ccc2cc([C@H](C)CO)ccc2c1,3%,-6%
C#C[C@]1(O)C=C[C@H]2[C@@H]3CCC4=CC(=O)CC[C@@H]4[C@H]3CC[C@@]21CC,-20%,7%
Cc1cc2oc(=O)cc(-c3ccccc3)c2c(C)c1/C=C/c1ccc(F)cc1,-26%,10%
CC(C)CCOc1ccc(N)cc1,7%,6%
C[C@@H]1CC[C@H]2C(=O)N(Cc3ccccc3)C[C@@H](O)CN2[C@@H]1c1cccc(Br)c1,·,-22%[8.59 µM]
O=S1(=O)CC(N2CCN(CCO)CC2)CN1Cc1cn(Cc2ccccc2C(F)(F)F)nn1 (stereo unspecified),47%[activator],10%
COC(=O)CCCC1=CC2=CC(=O)C(C)(OC(=O)c3cccs3)C(=O)C2=CN1C1CCCCC1 (stereo unspecified),-23%[8.59 µM],19%[8.59 µM]
Cc1cnc(C)c(-c2ccc(F)c3c2OC(CNC(=O)Cc2c(C)[nH]c4ccccc24)C3)n1 (stereo unspecified),-8%,2%
NC(=O)OCC(O)COc1ccc(Cl)cc1 (stereo unspecified),-9%[17.8 µM],-1%[17.8 µM]
Cc1c(C(=O)NCC2(N3CCOCC3)CCCCC2)cnn1-c1nccc(-c2ccccc2F)n1,-18%,-19%
C=C/C1=C/Cc2ccccc2[C@H](C[N+](=O)[O-])C(C(C)=O)(C(=O)OC)C1 (stereo partly specified),-1%&6%,1%&-14%
CN(CCO)CC(O)Cn1cnc2c1c(=O)n(C)c(=O)n2C (stereo unspecified) (tested in a mixture with another compound),-3%,20%
CC1(C2CCN(Cc3c[nH]c4ccccc34)CC2)NC(=O)N(CCN2CCOCC2)C1=O (stereo unspecified),-14%,-1%
CCCCCCCCCCCCCCCCCC(=O)OCC(C)O (stereo unspecified),-11%,8%
CN(C)CCO[C@@H](c1ccc(Cl)cc1)c1ccccn1,9%[17.8 µM],?
C[C@](N)(CCP(=O)(O)O)C(=O)O,2%&5%,2%&-1%
C=C1C[C@H](OC(=O)C(C)(O)CCl)C2C(=C)C(=O)O[C@@H]2C2C1C[C@H](O)[C@]2(O)CCl (stereo partly specified),?,20µM*
CC1C(=O)N(Cc2cn(CCC3OCCO3)nn2)CCS(=O)(=O)N1Cc1ccc(-c2ccccc2)cc1 (stereo unspecified),4%,2%
CCCCCC=CCC=CCCCCCCCC(=O)OCC,-14%,2%
O=S(=O)(O)c1cc(N=C=S)ccc1/C=C/c1ccc(N=C=S)cc1S(=O)(=O)O,34%[activator],-3%
CC(=O)Nc1ccc(OCCOCCOc2ccc(NC(C)=O)cc2)cc1,?,4%
O=c1[nH]cnc2c1ncn2[C@@H]1O[C@H](CO)[C@@H](O)[C@H]1O,3%,10%
C[C@H]1[C@@H](c2ccccc2)Oc2c(Cl)cccc2S(=O)(=O)N1Cc1ccc(Cl)cc1,-8%,-24%

# Quoted at random: 3 entries already listed
SMILES,LASV entry inh,MARV entry inh
O=S(=O)(O)c1cc(N=C=S)ccc1/C=C/c1ccc(N=C=S)cc1S(=O)(=O)O,34%[activator],-3%
C[C@](N)(CCP(=O)(O)O)C(=O)O,2%&5%,2%&-1%
CCCCCC=CCC=CCCCCCCCC(=O)OCC,-14%,2%

# (listing goes on)
SMILES,LASV entry inh,MARV entry inh
Cc1ccc(S(=O)(=O)N2CCC(=O)N(CCOCc3ccccc3)CC2)cc1,6%,12%
Cc1nnc(-c2ccc(C)c(-c3ccc(C(=O)NCc4ccc(Cl)cc4)cc3)c2)o1,·,2.8µM*
O=C(Cc1ccccc1)Nc1nc2ccc(Cl)cc2c2nc(-c3ccco3)nn12,?,-4%&8%
CC(C)C1C(=O)N(Cc2cn(CCC3OCCO3)nn2)CCS(=O)(=O)N1Cc1ccc(-c2cccc(CO)c2)cc1 (stereo unspecified),·,21%
NCC1O[C@@H](OC2C(N)CC(N)C(O)C2O[C@@H]2OC(CO)C(O)C2O)C(N)C(O)C1O (stereo partly specified),-10%,2%
CC1=C(C(=O)Nc2ccc3n[nH]c(C)c3c2)C(c2ccc(C(F)(F)F)cc2)CC(=O)N1 (stereo unspecified),1%,?
CC(=O)c1ccc(OCc2cn(CC(=O)c3ccc(O)cc3)nn2)cc1C,8%,12%
N[C@@H](C(=O)O)[C@H](CC(=O)O)c1ccc(Cl)cc1,-5%,19%
COc1ccc(C(=O)c2coc3ccc(O)cc23)cc1,48%[activator],25%
COC(=O)[C@@H](NC(=O)C1CCCN(c2nc(C)c3ccc(C)cc3n2)C1)C(C)C (stereo partly specified),-4%,?
CN[C@@H]1C[C@@]2(C)O[C@@H]([C@@H]1OC)n1c3ccccc3c3c4c(c5c6ccccc6n2c5c31)C(=O)NC4,1µM*,?
C[C@H](NC(=O)N1CCc2nc(COc3ccccc3)c3c(c2C1)CO[C@@H](C)C3)c1ccccc1,-17%[8.59 µM],4%[8.59 µM]
CC(=O)N1CCN(C)CC1,2%&-7%,10%&10%
COCCN1C(=O)NC(c2ccccc2)C(C(=O)OC)=C1C (stereo unspecified),-4%[8.59 µM],8%[8.59 µM]
C[C@@H]1C[C@H]2[C@@H]3CCC4=CC(=O)C=C[C@]4(C)[C@@]3(F)[C@@H](O)C[C@]2(C)[C@@]1(O)C(=O)COC(=O)c1cccc(S(=O)(=O)O)c1,-18%,22%
Cc1c(O)cc(O)c2c(=O)c(-c3ccc(O)cc3)coc12,10%,4%
O=C([O-])[C@@H]1[O][Sb+]([O][Sb+]2[O][C@H]([C@H](O)CO)[C@H](O)[C@H](C(=O)[O-])[O]2)[O][C@H]([C@H](O)CO)[C@@H]1O,3%,44%[activator]
CC1(C)[C@H]2CC[C@]1(C)[C@H](O)C2,-4%,15%
CCc1cc2c(c(CC)n1)CCC(=O)N2Cc1ccc(-c2ccccc2-c2nn[nH]n2)cc1,0%,23%
CN(C)CCO,-10%,-16%
CC1=CC2C(C(C)C)CCC(C)(O)C2CC1 (stereo unspecified),-5%,4%
CC(C)(C)c1cc(C=C(C#N)C#N)cc(C(C)(C)C)c1O,25µM*,2.8µM*
CN(CCO)C(=O)c1cn(C2CCN(Cc3ccc(C(F)(F)F)cc3)CC2)nn1,1%,12%
O=c1[nH]c(Cl)nc2c1ncn2C1OC(CO)C(O)C1O (stereo unspecified),2%,1%
CC(O)CCCCn1c(=O)c2c(ncn2C)n(C)c1=O (stereo unspecified),-8%,24%
O=P(O)(O)CP(=O)(O)O,-3%,-1%
Cc1ccc2c(c1)CN(CCNC(=O)C(C)Oc1ccccc1)CC(C)O2 (stereo unspecified),1%,-5%
C[N+](C)(C)CCOC(=O)C(O)(c1ccccc1)c1ccccc1,-17%,-10%
O=S(=O)(CCC(F)=C(F)F)c1nnnn1C1CCCCC1,3%,1%
O=C(O)[C@@H]1C[C@H](CP(=O)(O)O)CCN1,19%,8%

# Structures shown so far with sulfur (14):
SMILES,LASV entry inh,MARV entry inh
CCCCCCCCNCCS(=O)(=O)NCc1ccc(OC)cc1,-17%,12%
Cc1cccc(CNC(=O)c2c3n(c(C)cc2=O)-c2ccccc2SC(c2sccc2C)C3)n1 (stereo unspecified),-13%,?
c1ccc2c(N3CCCCCC3)nc(CN3CCCCC3c3nccs3)nc2c1 (stereo unspecified),-23%,?
O=C(NNCS(=O)(=O)O)c1ccncc1,3%,4%
C[C@@H]1CNCCN1S(=O)(=O)c1cccc2cnccc12,5%,-25%
O=S1(=O)CC(N2CCN(CCO)CC2)CN1Cc1cn(Cc2ccccc2C(F)(F)F)nn1 (stereo unspecified),47%[activator],10%
COC(=O)CCCC1=CC2=CC(=O)C(C)(OC(=O)c3cccs3)C(=O)C2=CN1C1CCCCC1 (stereo unspecified),-23%[8.59 µM],19%[8.59 µM]
CC1C(=O)N(Cc2cn(CCC3OCCO3)nn2)CCS(=O)(=O)N1Cc1ccc(-c2ccccc2)cc1 (stereo unspecified),4%,2%
O=S(=O)(O)c1cc(N=C=S)ccc1/C=C/c1ccc(N=C=S)cc1S(=O)(=O)O,34%[activator],-3%
C[C@H]1[C@@H](c2ccccc2)Oc2c(Cl)cccc2S(=O)(=O)N1Cc1ccc(Cl)cc1,-8%,-24%
Cc1ccc(S(=O)(=O)N2CCC(=O)N(CCOCc3ccccc3)CC2)cc1,6%,12%
CC(C)C1C(=O)N(Cc2cn(CCC3OCCO3)nn2)CCS(=O)(=O)N1Cc1ccc(-c2cccc(CO)c2)cc1 (stereo unspecified),·,21%
C[C@@H]1C[C@H]2[C@@H]3CCC4=CC(=O)C=C[C@]4(C)[C@@]3(F)[C@@H](O)C[C@]2(C)[C@@]1(O)C(=O)COC(=O)c1cccc(S(=O)(=O)O)c1,-18%,22%
O=S(=O)(CCC(F)=C(F)F)c1nnnn1C1CCCCC1,3%,1%
